RGS16-Gao HTS: RGS16-Galphao interaction regulator (human); O15492+P09471; bead-based flow cytometry RGS16-Galphao binding, fluorescence; actives lie on both sides; binding response (% of control), % at 10 µM; 220,000 tested, 0.38% active; AID 1441;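 active = below 25% or above 175%, edge rows of some plates excepted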;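 note: Galphao activated by GDP with aluminum fluoride before binding; 100% = wells without compound and 0% = beads without RGS; some results beyond the cut were filed as inactive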
Target sequence (O15492 whole entry, looked up): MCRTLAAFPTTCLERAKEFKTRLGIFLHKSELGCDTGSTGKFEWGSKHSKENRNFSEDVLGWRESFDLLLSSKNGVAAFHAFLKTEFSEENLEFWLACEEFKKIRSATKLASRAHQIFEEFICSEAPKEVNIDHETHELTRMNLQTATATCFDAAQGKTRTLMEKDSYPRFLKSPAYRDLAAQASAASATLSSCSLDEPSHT
Target sequence (P09471 whole entry, looked up): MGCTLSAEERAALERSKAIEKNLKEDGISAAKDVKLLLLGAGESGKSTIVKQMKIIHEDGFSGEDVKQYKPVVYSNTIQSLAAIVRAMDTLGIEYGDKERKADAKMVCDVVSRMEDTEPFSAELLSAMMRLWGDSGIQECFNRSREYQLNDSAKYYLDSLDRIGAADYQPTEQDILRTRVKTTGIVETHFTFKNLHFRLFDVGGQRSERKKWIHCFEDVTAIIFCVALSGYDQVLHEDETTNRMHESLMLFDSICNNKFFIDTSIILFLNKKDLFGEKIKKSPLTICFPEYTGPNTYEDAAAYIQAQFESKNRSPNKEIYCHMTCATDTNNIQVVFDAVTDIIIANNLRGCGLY
Insulin prom inh: TRM-6 insulin promoter activity inhibition | TRM-6 cells (human fetal islet line), insulin promoter-eGFP reporter, imaging; reporter expression induced with tamoxifen | inhibition, % at 2 µM | 130,000 tested, 0.9% active;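 active = inhibition above the mean plus 3 SD, with well images judged a real hit on visual review, cut at about 60% in these data, passing the limit was not always enough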
HSV replic up: increases HSV replication in cells. HSV replication augmentation in cells, fold increase. maximum fold increase. AID 1956. 220,000 tested, 0.005% active;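 active = peak rise of 1.5-fold or more in the series; tested in PC3 cells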;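 note: first round at 10 µM; read as green reporter fluorescence; hits show the peak of a series up to 25 µM; 1 = signal of infected wells without compound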
PKD1 kinase inh: inhibitors of human PKD1 kinase. Q15139. PKD1 kinase fluorescence polarization assay. inhibition, %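 (about 10 µM by stock and volumes)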. 200,000 tested, 0.056% active. AID 797;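 active = inhibition of 50% or more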;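 note: controls were vehicle for no effect and a reference inhibitor for full effect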
GALR2 agonist: GALR2 (human) receptor agonism. 140,000 tested, 0.48% active. activation, %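 (tested at 5 µM)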. O43603. GALR2-expressing cells, agonist activation read-out;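 active = above mean plus 3 SD of all compounds, about 5% in these data, not always enough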;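 note: 0% = vehicle buffer wells and 100% = reference agonist at full effect; tested in CHO reporter cells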
Target sequence (O43603 whole entry, looked up): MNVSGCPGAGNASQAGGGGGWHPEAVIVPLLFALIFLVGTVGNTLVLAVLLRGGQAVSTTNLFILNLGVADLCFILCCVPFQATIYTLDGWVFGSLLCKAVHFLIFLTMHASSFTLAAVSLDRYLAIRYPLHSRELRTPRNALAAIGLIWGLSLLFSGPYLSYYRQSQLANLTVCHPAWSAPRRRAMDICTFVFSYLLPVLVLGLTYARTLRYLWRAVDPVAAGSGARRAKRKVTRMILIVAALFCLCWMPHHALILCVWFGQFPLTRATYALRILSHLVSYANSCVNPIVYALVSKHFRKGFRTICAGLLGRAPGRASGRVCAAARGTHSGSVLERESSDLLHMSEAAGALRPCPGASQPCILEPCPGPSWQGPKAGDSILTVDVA
Insulin prom inh cell count: also measured in Insulin prom inh; calls as there; normalized cell count, %; measured here: cell count, toxicity; reference of the scale not given here;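 cells exposed to compound for 48 h; stained nuclei by imaging scaled within each plate; lower means fewer cells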
HSV replic up primary fold: second read-out of HSV replic up, no call of its own (marks repeat the call); fold increase; compound at 10 µM; measured here: primary screen fold increase 10 uM; tested in PC3 cells;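 GFP signal in the first replicate; 1 = infected wells without compound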
Numbers without * were called inactive; i = inactive; / = no result given.

SMILES	RGS16-Gao HTS	Insulin prom inh	Insulin prom inh cell count	HSV replic up	HSV replic up primary fold	PKD1 kinase inh	GALR2 agonist
COC(=O)C1(C#N)C(c2ccccc2)C1(C(=O)OC)C(=O)OC (configuration not stated)	120	41	98	/	/	6	-1.5
CCOCCNC(=O)c1ccc2c3c(cccc13)CC2	101	10	110	i	1	0	-1.6
c1ccc2c(c1)oc1c(Nc3ccc4c(c3)OCCO4)ncnc12	99	31	101	i	0.95	31	-2.0
O=S(=O)(c1ccccc1)N1CCN(C(=S)NCc2ccccc2)CC1	96	-11	189	i	1.1	3	/
O=C(C1CN(S(=O)(=O)c2ccccc2)CCN1S(=O)(=O)c1ccccc1)N1CCCCCC1 (configuration not stated)	102	100*	41*	i	0.92	-5	-0.9
C=CC[C@H]1CC(Cc2ccccc2)=C[C@H](CC=C)N1	102	-151	82	i	0.89	-5	1.3
CC(=O)Nc1cccc(/C(C)=N\NC(=O)c2ccc(Cn3nc([N+](=O)[O-])c(Cl)c3C)o2)c1	108	-32	96	i	1	-4	-0.8
COc1ccc(NC(=O)c2ccc(-n3nc(C)c[n+]3[O-])cc2)cc1	99	-9	97	i	0.94	-2	-2.6
COc1ccccc1C(=O)n1nc(-c2ccccc2)nc1N	102	-66	143	i	0.77	-9	-3.1
OC(COCc1cccs1)CN1CCN(c2ccccc2Cl)CC1 (configuration not stated)	103	/	/	i	0.96	11	0.1
CC(C)(C=O)C1=CC(=O)c2ccccc2C1=O	53	-203	2	i	1.1	6	-2.4
COc1ccc(Cn2cnc3c(NS(C)(=O)=O)c(C)c(C)cc32)cc1	97	-38	75	i	0.85	0	0.1
CCC1Oc2nc(SC)nnc2-c2ccccc2N1C(=O)c1ccccc1 (configuration not stated)	107	8	110	i	0.98	-7	0.0
COc1ccc(CCNC(=S)NCc2ccc(Cl)c(Cl)c2)cc1OC	98	/	/	i	0.93	-5	/
CCC(Oc1ccccc1)C(=O)Nc1ccsc1C(=O)OC (configuration not stated)	22	7	53	i	0.97	-12	0.0
COc1ccc(Oc2ncnc3sccc23)cc1	111	-43	110	i	0.86	-6	/
O=C(c1ccco1)N1CCN(C(=O)C2CCCc3c2[nH]c2ccc(Cl)cc32)CC1 (configuration not stated)	100	21	84	i	0.94	-9	-1.9
Cc1oc2ccc(OCc3ccc(Cl)cc3)cc2c1C(=O)O	35	/	/	i	1.1	/	/
O=C(COC(=O)c1ccc(Cl)c(Cl)c1)Nc1cccnc1Cl	84	33	104	i	0.9	-15	-0.8
Cc1nc2cc(C(=O)OCC(=O)NC(C)C(C)C)ccc2n1-c1ccccc1 (configuration not stated)	110	50	210	i	0.99	5	-1.0
CN(C)c1ccc(/C=C(\C#N)c2ccccc2)cc1	99	/	/	i	0.85	/	/
CC#CCCCC(=O)Nc1cccc(C(=O)O)c1	107	-36	196	i	0.7	-3	-4.9
COC(=O)C1(C(=O)OC)NOC2C(=O)N(c3ccccc3)C(=O)C21 (configuration not stated)	115	-44	117	i	1.4	2	-2.2
Cc1ccc(Nc2nc(N)nc(CSC(=S)N3CCOCC3)n2)cc1	94	8	79	i	0.78	9	-2.3
COc1ccccc1CC(NC(C)=O)C(=O)N1CCN(C(=O)Nc2ccccc2Cl)CC1 (configuration not stated)	99	8	128	i	0.95	-6	0.2
O=C(c1cn(-c2ccccc2)nc1-c1ccc(Cl)cc1)N1CCOCC1	99	-56	138	i	0.93	-5	1.2
CC(=O)Oc1ccc(NC(=O)CCC2CCCCC2)c(C(=O)O)c1	66	2	116	i	0.87	-3	-1.0
COc1ccc(Cc2nc(-c3ccccn3)no2)cc1	104	3	103	i	1	1	-3.9
CCOC(=O)c1ccc(NC(=O)c2nn(C)cc2Br)cc1	102	55	133	i	0.96	0	-1.4
CC1(C)C2([N+](=O)[O-])CN3CC1([N+](=O)[O-])CN(C2)C3c1ccc(O)c(O)c1 (configuration not stated)	103	/	/	i	0.94	/	/
CCOC(=O)c1cc(CC)sc1NC(=O)CCC(=O)O	104	33	141	i	0.81	4	1.9
O=S(=O)(Nc1ccc2c(c1)OCO2)c1ccccc1	111	33	95	i	0.94	-6	34*
CCN(CC)C(=O)c1cc(C(C)(C)C)c(O)c(C(C)(C)C)c1	102	37	98	i	0.98	4	-0.2
COc1ccc(-c2cc(C(=O)OC3CCOC3=O)c3ccccc3n2)cc1OC (configuration not stated)	98	/	/	i	0.98	-4	-1.5
C/C(=N\Nc1ccccn1)c1ccc(C#N)cc1	99	/	/	i	0.96	0	/
O=C(O)CCCCCCCCCC[n+]1ccccc1	106	/	/	i	0.88	/	/
Clc1ccccc1/C=N/c1cc(-c2ccccc2)nn1-c1ccccc1	102	-12	59	i	1.2	-5	-1.1
Cc1ccc(S(=O)(=O)n2ccc(-c3cccc(OCc4c(F)cccc4Cl)c3)n2)cc1	101	21	84	i	1.1	-11	-0.4
CC(=O)Nc1ccc(N2CCN(C(C)=O)CC2)cc1	100	/	/	i	0.85	7	-1.0
Cc1cnc(NC(=O)C2CCCC2)s1	100	/	/	i	0.98	-9	-1.4

One compound at a time, from the list above. Order of screens: RGS16-Gao HTS	Insulin prom inh	Insulin prom inh cell count	HSV replic up	HSV replic up primary fold	PKD1 kinase inh	GALR2 agonist
COC(=O)C1(C(=O)OC)NOC2C(=O)N(c3ccccc3)C(=O)C21 (configuration not stated) as listed: 115	-44	117	i	1.4	2	-2.2
CC1(C)C2([N+](=O)[O-])CN3CC1([N+](=O)[O-])CN(C2)C3c1ccc(O)c(O)c1 (configuration not stated) as listed: 103	/	/	i	0.94	/	/
Clc1ccccc1/C=N/c1cc(-c2ccccc2)nn1-c1ccccc1 as listed: 102	-12	59	i	1.2	-5	-1.1
Cc1ccc(Nc2nc(N)nc(CSC(=S)N3CCOCC3)n2)cc1 as listed: 94	8	79	i	0.78	9	-2.3
C/C(=N\Nc1ccccn1)c1ccc(C#N)cc1 as listed: 99	/	/	i	0.96	0	/

Later entries:
SMILES	RGS16-Gao HTS	Insulin prom inh	Insulin prom inh cell count	HSV replic up	HSV replic up primary fold	PKD1 kinase inh	GALR2 agonist
O=C(O)c1cc2nc(-c3ccc(F)cc3)cc(C(F)(F)F)n2n1	104	14	69	i	0.77	-8	1.4
Cc1ccc(F)c(C2C3C=CCC(c4cccc(-c5ccc(N(C)C)cc5)c4)C3C(=O)N2Cc2ccccc2)c1 (configuration not stated)	86	/	/	i	0.85	/	/
COC(=O)c1ccccc1NC(=O)CCc1ccccc1	91	-10	120	i	0.88	-10	0.9
COc1ccccc1C(CNC(=S)NCc1ccccc1)N1CCCC1 (configuration not stated)	105	-125	88	i	0.93	-6	/
COC(=O)CCCC1=CC2=C(c3ccccc3)C(=O)C(C)(OC(=O)C3CCCC3)C(=O)C2=CN1Cc1ccc(OC)cc1 (configuration not stated)	99	/	/	i	1	/	/
O=C(Cn1nc(C(F)(F)F)cc1C1CC1)NCc1ccccc1F	102	-19	55	i	0.98	6	-1.1
Cn1cc(NC(=O)c2cc(NC(=O)c3cc(NC=O)cn3C)cn2C)cc1C(=O)NCCC(=N)N	100	/	/	i	0.98	/	/
O=c1[nH]nc(SCc2ccccc2)c(=O)[nH]1	104	-30	143	i	0.95	1	-0.7
COc1cc(C2c3c(n[nH]c3C)C(=O)N2c2ccc(C)cc2)ccc1O (configuration not stated)	103	22	112	i	0.79	-9	-0.1
CC(C)(C)NC(=O)CN(c1cccc([N+](=O)[O-])c1)S(=O)(=O)c1ccccc1	103	/	/	i	0.9	1	/
O=S(=O)(NCC(c1cccnc1)N1CCN(c2ccc(F)cc2)CC1)c1cccs1 (configuration not stated)	109	29	65	i	1	7	-1.7
Cc1ccc(NC(=S)N(Cc2ccco2)C(C)c2cccs2)cc1 (configuration not stated)	100	27	98	i	0.97	-5	/
O=C(OCc1cc(=O)n2c(n1)sc1ccccc12)c1ccc(O)cc1	101	-14	136	i	0.84	-7	-1.5
COC(=O)c1cc(C#N)c(N(C)Cc2ccccc2)nc1C	98	-30	61	i	0.85	-6	-1.7
CCn1c(CSc2nc(C)cc(C)n2)nnc1SCC(=O)Nc1ccccc1	102	22	49	i	0.8	-16	-2.0
Cc1ccc(NC(=O)NCCCc2ccccc2)cc1	97	/	/	i	1.1	7	-0.9
CC(C)=C1C2CCC1C1C(=O)N(NC(=O)c3ccco3)C(=O)C21 (configuration not stated)	105	8	85	i	0.9	-5	-0.6
CCOC(=O)c1cc2ccc(OC(=O)c3ccco3)cc2oc1=O	105	62	63	i	0.99	-5	209*
Cc1cc(Nc2ccc(Br)cc2F)n2nc(C)nc2n1	97	/	/	i	1	5	-1.1
COc1ccc(C)cc1NC(=O)C(=O)N/N=C(\C)CC(=O)Nc1cccnc1	101	-19	111	i	1.1	-6	-0.8

Already shown: 3 of the compounds above.
SMILES	RGS16-Gao HTS	Insulin prom inh	Insulin prom inh cell count	HSV replic up	HSV replic up primary fold	PKD1 kinase inh	GALR2 agonist
CCOC(=O)c1cc2ccc(OC(=O)c3ccco3)cc2oc1=O	105	62	63	i	0.99	-5	209*
Cc1cc(Nc2ccc(Br)cc2F)n2nc(C)nc2n1	97	/	/	i	1	5	-1.1
COc1ccc(C)cc1NC(=O)C(=O)N/N=C(\C)CC(=O)Nc1cccnc1	101	-19	111	i	1.1	-6	-0.8

Going on with the list:
SMILES	RGS16-Gao HTS	Insulin prom inh	Insulin prom inh cell count	HSV replic up	HSV replic up primary fold	PKD1 kinase inh	GALR2 agonist
Cc1ccc(-n2c(C)cc(C(=O)CSc3nncs3)c2C)cc1	55	9	95	i	0.84	-17	-1.6
Cc1cc(C)n(-c2nc(SCC(=O)Nc3nccs3)c3c4c(sc3n2)COC(C)(C)C4)n1	104	8	163	i	0.99	7	-0.6
Cc1nc(N)sc1-c1csc(Nc2ccccn2)n1	85	-7	57	i	1	10	-0.2
CCOc1cc(S(=O)(=O)N2CCCC2)c(C)cc1C	107	/	/	i	1	7	/
Cc1cc(C)c2nc(Nc3nc(-c4ccccc4)cc(=O)[nH]3)nc(C)c2c1	70	/	/	i	1	/	/
O=C(CCS(=O)(=O)c1ccc(Br)s1)NC1CCCCCC1	103	-4	118	i	1	-4	-2.6
CC(C)OC(=O)c1c(NC(=O)Cn2cnc([N+](=O)[O-])n2)sc2c1CCCC2	/	-4	82	i	0.73	5	-3.7
COc1ccc(C(CC(=O)c2ccccc2)CC(=O)c2ccccc2)cc1OC	100	/	/	i	1	-4	/
COc1ccc(Cl)cc1N(CC(=O)NC(C)(C)C)S(=O)(=O)c1ccc(C)c([N+](=O)[O-])c1	162	-45	58	i	1.1	-9	0.1
COc1cc(OC)cc(C(=O)NC(=S)Nc2nc(-c3cc4ccccc4o3)cs2)c1	99	/	/	i	0.93	/	/
O=C(O)C(C(=O)/C=C/c1ccco1)=C1SCCS1	95	-57	127	i	1.1	-3	-2.1
COc1ccc(C(=O)COC(=O)CN2C(=O)C3C4C=CC(C5CC45)C3C2=O)cc1 (configuration not stated)	114	/	/	i	0.94	2	-1.3
O=C(c1nc2ccccn2c1CNCCCn1nnc2ccccc21)N1CCOCC1	114	35	77	i	1.1	2	/
CCNC(=S)NNC(=O)c1cccn(Cc2ccc(Cl)cc2)c1=O	98	-26	130	/	/	-10	0.4
C/C(CC(=O)NC1CCCCCC1)=N\NC(=O)c1cnccn1	47	/	/	i	1	1	-3.1
COc1ccccc1OCCCn1c(=O)sc2ccccc21	104	-86	147	i	0.81	9	-0.6
O=C(NNS(=O)(=O)c1ccccc1)c1sccc1-n1cccc1	97	0	129	i	1.1	-7	-1.7
COc1ccc(NC(=O)c2ccccc2C(=O)N2CCCCC2)cc1	99	-30	152	i	1	-2	/
C/C(CC(=O)NC(C)C)=N\NC(=O)C(c1ccccc1)c1ccccc1	105	56	108	i	0.95	0	/
CCOC(=O)c1c(NC(=O)CCC(=O)N(CC)CC)sc2c1CC(C)(C)OC2	102	/	/	i	0.99	/	/
O=C1C2C(c3ccccc3)CC=CC2[C@H](c2ccc(C(F)(F)F)cc2)N1Cc1ccccc1 (some centres not stated)	105	/	/	i	0.63	/	/
Cc1c(C(Nc2ccccn2)c2ccc(Cl)cc2)c(=O)n(-c2ccccc2)n1C (configuration not stated)	97	-8	58	i	0.99	-14	-0.2
O=C(c1ccc(F)cc1)c1cn(Cc2ccc(F)cc2)c2cc3c(cc2c1=O)OCCO3	105	22	155	/	/	0	-3.3
O=C(Nc1ccc(N=Nc2ccccc2)cc1)c1ccccc1Cl	98	/	/	i	0.87	1	-0.9
O=C(COC(=O)c1cc(S(=O)(=O)N2CCc3ccccc3C2)ccc1Cl)NCc1ccco1	93	13	164	i	0.97	-3	0.4
Cc1nc(NC(C)(C)CO)c([N+](=O)[O-])cc1[N+](=O)[O-]	102	23	49	i	0.96	-18	-2.4

Compound activity: PubChem BioAssay, several laboratories
